ClpP mod: qHTS Assay for Activators of ClpP; ATP-dependent Clp protease proteolytic subunit (Bacillus subtilis (strain 168)), P80244; purified B. subtilis ClpP, FRET peptide cleavage, 20 min; Potency, µM (highest dose often 57.5 µM), inactives show at the highest dose activity change, negative = active; actives 1.9% (n = 340,000); active = well fitted falling curve with a large enough effect; inconclusive = small, poorly fitted or top-dose-only effect; inactive = no such curve, though single readings can be large or run the other way; also: potency is read from the fitted curve at half-maximal effect; the source files actives as falling curves though it sought activators and does not explain the sign; nearly all actives have a fitted effect of over 65% in size; many hits overshoot -100%
Target sequence (P80244 whole entry, looked up): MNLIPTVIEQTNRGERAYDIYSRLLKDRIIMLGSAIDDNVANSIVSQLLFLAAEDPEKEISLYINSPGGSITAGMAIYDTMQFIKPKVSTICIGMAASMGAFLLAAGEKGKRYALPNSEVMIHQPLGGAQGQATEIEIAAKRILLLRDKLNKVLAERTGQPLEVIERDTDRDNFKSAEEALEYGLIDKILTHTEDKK
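ClpP 10 microg/mL final, pH 8 Tris/KCl buffer with BSA, glycerol, Tween-20; compound pinned in; FRET-FV substrate; RT 20 min; Ex320/Em430; ΔFRET vs ADEP 5.8 microM, DMSO, no enzyme.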
gsp agonist: agonists of gsp mutant (McCune-Albright syndrome); actives 0.13% (n = 340,000); gsp mutant cells, cAMP HTRF, 30 min; control for the full effect not named in the record; Potency, µM (titrated, usually from 76.9 µM), inactives show top-dose activation (cAMP increase), most hits filed as activators; active = well fitted activation curve with a large enough effect; inconclusive = small, poorly fitted or top-dose-only effect, or another doubt; inactive = no such curve, though single readings can be large or run the other way; cell line not stated here;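 also: phosphodiesterase inhibitor Ro 20-1724 added with compounds to block cAMP breakdown; potency is read from the fitted curve at half-maximal effect; nearly all actives have a fitted effect of over 60% in size; about a fifth of the inactives were tested at one dose only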
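Cells in DMEM/10% FBS with G418 were pretreated with compounds in DMSO plus […] (300 uM stock) for 30 min at 37C. cAMP was measured by HTRF (cAMP-d2 plus anti-cAMP antibody-K) after 30 min at room temperature.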
D2 PAM: positive allosteric modulators of human D2 dopamine receptor | P14416 | DiscoveRx D2 beta-arrestin cells, luminescence, 90 min; 100% = 57 uM dopamine signal | potentiation, % (concentration not given with the values) | actives 0.23% (n = 360,000); active = potentiation of 50% or more; inconclusive = 30% to 50%; inactive = 30% or less;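 also: compound concentration not given in the record; tested on top of an EC20 dose of dopamine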
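D2 cells co-treated with compound plus 50 nM dopamine (EC20) for 90 min at 37 deg C to detect potentiation. Beta-arrestin recruitment was read as enzyme-fragment luminescence after 1 h at ambient temperature. Full response was set by 57 uM dopamine.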
Menin MLL FP FL: displaces fluorescein MLL peptide from human menin. Fluorescence polarization, fluorescein-MLL peptide displacement from menin. AID 1766. 290,000 tested, under 10 active. FP activity change, % at 61.4 µM; inconclusive = falling polarisation curve, or a change in total fluorescence; inactive = total fluorescence flat and polarisation flat or rising; no compound was filed as active; the % refers to the polarisation; negative = inhibition;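 also: % of control where 0% means no effect; inhibitors lower the polarisation; unlabelled MLL peptide was the positive control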
Sfp PPTase inh: blocks B. subtilis Sfp PPTase activity; Biochemical Sfp PPTase activity, qHTS; Potency, µM, inactives show max response, negative = inhibition, actives largely listed as inhibitors; actives 3.5% (n = 310,000); AID 1490; active = well fitted inhibition curve with a large enough effect; inconclusive = small, poorly fitted or top-dose-only effect, or another doubt; inactive = no such curve, though single readings can be large or run the other way;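 also: the enzyme is Sfp with the accession as filed and its product quenches rhodamine fluorescence; potency is read from the fitted curve at half-maximal effect; 0% = enzyme reaction without inhibitor and -100% = no enzyme wells; top concentration of the series not given in the record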
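After 15 min at room temperature with compound, 15 nM Sfp received 5 uM rhodamine-CoA plus 12.5 uM BHQ-2-ybbR (50 mM Hepes pH 7.6, 10 mM MgCl2). Rate came from the fluorescence difference over 30 min, ex 525/em 598 nm.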
gsp antag: antagonizes gsp, the McCune-Albright syndrome mutation; gsp-mutant cells, cAMP HTRF, 30 min; control for the full effect not named in the record; Potency, µM (top dose mostly 76.9 µM), for inactives: top-dose activity change, negative = inhibition, most hits filed as inhibitors; actives 0.4% (n = 340,000); active = falling curve of any shape with a large fitted effect; inconclusive = falling curve, mostly with a smaller effect; inactive = flat or rising curve; cell line not stated here;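 also: intracellular cAMP measured with PDE inhibitor Ro 20-1724 present during compound exposure; potency is read from the fitted curve at half-maximal effect; % is scaled to controls: 0 for no effect and ±100 for the full control effect; nearly all actives have a fitted effect of over 65% in size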
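Cells, 2000/well, grown 16–24 h in DMEM 10% FBS with 0.5 mg/ml G418, then compounds plus […] (300 uM addition stock), 30 min at 37C. cAMP read by HTRF (cAMP-d2 and anti-cAMP antibody-K in lysis buffer) after 30 min RT.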
TRPV1 potentiator: enhances activation of the human vanilloid receptor TRPV1; potentiation, % at 8.33 µM; AID 540277; TRPV1-expressing cells, Fluo-8 calcium influx, capsaicin EC20 potentiation; host cell line not named in the record; control for the full effect not named in the record; actives 0.02% (n = 320,000); active means potentiation above 80%; inconclusive means 30% to 80%; inactive means below 30%; also: 0% is about no effect
Target sequence (Q8NER1 whole entry, looked up): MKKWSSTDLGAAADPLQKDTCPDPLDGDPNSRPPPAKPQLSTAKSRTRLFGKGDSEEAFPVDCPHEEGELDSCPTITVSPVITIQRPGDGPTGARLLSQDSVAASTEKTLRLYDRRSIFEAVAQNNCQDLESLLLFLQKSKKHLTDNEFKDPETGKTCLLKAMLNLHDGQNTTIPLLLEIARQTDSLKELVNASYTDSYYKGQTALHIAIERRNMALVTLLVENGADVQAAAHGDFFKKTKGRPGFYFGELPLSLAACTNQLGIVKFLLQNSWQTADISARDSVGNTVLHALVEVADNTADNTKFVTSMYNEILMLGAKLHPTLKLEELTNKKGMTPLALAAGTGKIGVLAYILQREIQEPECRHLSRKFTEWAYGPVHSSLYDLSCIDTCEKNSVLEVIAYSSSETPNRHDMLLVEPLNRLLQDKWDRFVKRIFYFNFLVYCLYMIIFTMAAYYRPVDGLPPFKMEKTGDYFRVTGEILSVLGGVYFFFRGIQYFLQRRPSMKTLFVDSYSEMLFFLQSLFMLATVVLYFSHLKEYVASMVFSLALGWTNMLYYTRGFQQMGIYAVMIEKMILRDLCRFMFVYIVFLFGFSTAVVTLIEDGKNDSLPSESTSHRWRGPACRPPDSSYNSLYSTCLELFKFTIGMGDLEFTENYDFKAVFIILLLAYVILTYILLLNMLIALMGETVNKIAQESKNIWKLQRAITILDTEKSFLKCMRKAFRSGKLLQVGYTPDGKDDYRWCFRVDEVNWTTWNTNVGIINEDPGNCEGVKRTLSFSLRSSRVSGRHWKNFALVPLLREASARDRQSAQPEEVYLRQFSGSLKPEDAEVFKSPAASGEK
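Fluo-8 calcium influx in TRPV1-expressing cells, kinetic read (ex 480/em 520 nm). Compound added and read 3 min for agonist activity, followed by capsaicin at EC20 final and 2 min further read for enhancement.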
* hit, by the source's call; u = inconclusive; x = no result given; [ ] = dose if it differs, or a comment. Not a hit list, and some 5.1% of all compounds hit somewhere here.

molecule,D2 PAM,TRPV1 potentiator,gsp agonist,Sfp PPTase inh,gsp antag,ClpP mod,Menin MLL FP FL
O=c1[nH]c(/C=C\c2cccc(F)c2)nc(O)c1[N+](=O)[O-],-3.0,5.1,-22.5%[15.4 µM],3.0%,11.2%,-4.0%,-3.3
CC(=O)Nc1ccc(NC(=O)Cn2cnc3c(cnn3C(C)(C)C)c2=O)cc1,-0.5,-0.4,27.4%,29.6%,-2.6%,1.1%,-2.5
Clc1ccc(-c2cc(C3CCNCC3)[nH]n2)c(Cl)c1,-5.1,2.8,-0.1%,6.1%,0.7%,x,-5.2
Cc1oc2c(c1C(=O)NCCO)CCCC2,-5.8,-6.0,3.9%,17.3%,1.3%,-0.3%,0.2
Cc1ccc(NC(=O)CNc2cccc(S(=O)(=O)N3CCCCC3)c2)cc1F,-0.9,-1.4,27.5%,x,-36.9%,-5.0%,x
O=C(Cc1ccccc1)NNC1CC(=O)N(c2ccccc2)C1=O (stereo unspecified),5.0,1.4,u,17.1%,3.5%,-2.1%,3.2
COc1ccc(N(C)S(=O)(=O)c2cccc(C(=O)Nc3cc(OC)ccc3OC)c2)cc1,3.4,3.9,-1.4%[15.4 µM],17.6%,-24.9%,x,1.0
Cc1cc(C)c(C(=O)O)c(Cl)n1,-1.9,-9.0,-2.0%,-27.6%,6.8%,x,-1.5
Cc1oc(-c2ccccc2F)nc1CSCC(=O)NC1CCC(C)CC1 (stereo unspecified),-11.4,-15.8,27.3%,3.4%,-28.1%,-16.4%,-4.4
CCOc1ccc2nc(-c3ccccc3)nc(SCC(=O)Nc3ncc(C)s3)c2c1,-11.7,2.1,27.1%,13.8%,2.3%,1.8%,0.9
NS(=O)(=O)c1ccc(CCNC(=O)c2ccc3ccccc3n2)cc1,-4.9,-6.3,11.4%[15.4 µM],16.4%,u,-0.6%,-4.2
CCN(CC)C(=O)CN(C#N)c1nc(C)cc(C)n1,-8.1,2.7,-15.4%,0.2%,10.0%,x,1.6
O=C(C[n+]1cccc(/C=N/O)c1)N(Cc1ccccc1)Cc1ccccc1,-4.7,3.0,-8.2%[15.4 µM],12.5%,8.5%,x,1.6
CCc1ccc2c(c1)cc(C)c1nnc(SCC(=O)Nc3cc(OC)c(OC)cc3C(=O)O)n12,-0.5,-1.9,-2.7%[15.4 µM],-15.1%,-6.4%,-0.6%,2.0
CCOc1cc(/C=C(/C#N)c2nc3ccccc3[nH]2)ccc1OCc1ccc(C(=O)O)o1,4.1,x,-79.1%[inhibitor],-29.7%,-15.0%,-4.8%,u
N#Cc1ccc(CSc2nnc(NC(=O)C3CCCO3)s2)cc1 (stereo unspecified),6.7,20.2,-4.3%,1.7%,18.9%,0.6%,1.6
Cc1cccc(NC(=O)CN2C(=O)S/C(=C\c3cc(C)n(C)c3C)C2=O)c1,-1.5,-4.7,24.1%,56.2µM*,-2.5%,-0.8%,12.7
O=C(NCC1CCCO1)C1CCCN(S(=O)(=O)c2ccc(F)cc2)C1 (stereo unspecified),-15.7,-1.3,-10.6%[15.4 µM],14.7%,12.6%,-1.6%,x
C=CCN(c1ccccc1OC)S(=O)(=O)c1ccc(Cl)c(C(=O)Nc2ccc(N3CCOCC3)cc2)c1,-12.2,2.6,24.2%,5.9%,-6.6%,x,-2.5
CCC(C)[C@H](NC(=O)C1CC(=O)N(c2ccc(OC)cc2)C1)C(=O)N1CCCCC1 (stereo partly specified),-2.8,-0.8,12.3%,18.0%,5.5%,-1.8%,0.5
O=C(Oc1ccc(=O)n(-c2ccccc2)n1)c1cccc(Cl)c1,-5.3,-8.0,-22.7%,4.5%,0.0%,-0.4%,-0.1
Cc1cccc2cc(CN(CC3CCCO3)S(=O)(=O)c3ccccc3)c(=O)[nH]c12 (stereo unspecified),9.8,6.6,1.8%,3.7%,-13.1%,4.0%,-2.1
O=C(NCc1ccc(F)cc1)C1CCCN1C(=O)Nc1ccc(Cl)cc1 (stereo unspecified),-14.9,0.9,0.8%,7.6%,1.7%,-0.4%,0.1
Cc1cc(NC(=O)CSc2nnc(NCc3ccccc3)s2)no1,6.0,-3.0,23.4%,-9.5%,4.1%,0.5%,5.5
COc1cccc(NCc2nnc(SCC(=O)NC3CCS(=O)(=O)C3)n2C2CCCCC2)c1 (stereo unspecified),1.3,-1.3,-40.4%[15.4 µM],x,4.8%,x,x
Cc1ccc(SCc2ccc(C(=O)Nc3cc([N+](=O)[O-])ccc3C)cc2)cc1,4.1,-35.9,-47.8%[inhibitor],-4.6%,0.1%,2.2%,2.7
Cc1cccc(-n2c(-c3ccoc3C)n[nH]c2=S)c1,-24.1,-6.2,u,u,7.7%,-0.1%,-1.6
CCn1cc(C2=NC(C)(C)CO2)c2ccccc21,-10.5,-1.2,10.8%,13.5%,-10.2%,u,-1.5
COc1ccc(N2CCN(S(=O)(=O)CCNC(=O)/C=C/c3ccc4c(c3)OCO4)CC2)cc1,-4.1,-2.0,-5.7%[15.4 µM],x,3.8%,-1.3%,x
O=C(NC(Cc1ccccc1)c1ccc2c(c1)OCCCO2)c1ccccc1 (stereo unspecified),-7.8,-6.4,3.8%,1.3%,-7.2%,-3.6%,6.9
COc1cc(C(=O)Oc2ccccc2OC(=O)c2cc(OC)c(OC)c(OC)c2)cc(OC)c1OC,2.9,x,u,x,-21.6%,x,x
CCNc1nc(NCC)n2c(SCC(=O)NCC3CCCCC3)nnc2n1,-11.9,-5.1,-9.1%[15.4 µM],17.4%,7.8%,x,5.1
Cc1ccc(NC(=O)c2oc3ccc(S(=O)(=O)N4CCC5(CC4)OCCO5)cc3c2C)cc1C,-0.8,8.7,-4.4%[15.4 µM],-5.4%,u,-2.2%,5.9
Cc1ccc(NC(=O)COC(=O)COc2cccc3c2OC(C)(C)C3)c(C)c1,-8.0,17.7,17.0%,x,8.5%,0.9%,x
COc1ccccc1S(=O)(=O)Cc1ccc(C(=O)NC(C)c2ccc3c(c2)OCCO3)o1 (stereo unspecified),-0.6,26.6,-28.4%,16.7%,-10.7%,-7.4%,7.6
CC1=C(C(=O)O)N2C(=O)C(NC(=O)c3ccccc3Cl)C2SC1 (stereo unspecified),2.2,5.2,-2.2%[15.4 µM],8.91µM*,11.0%,x,-0.4
C=CCNc1nc2ccccc2nc1NS(=O)(=O)c1cccs1,7.9,3.0,28.6%,-7.6%,u,-23.7%,-2.2
OCC[C@H]1C[C@H](O)[C@@H](O)[C@@]2(CCCCO2)O1,-2.8,19.1,18.7%,0.8%,5.6%,-1.1%,2.9
COC(=O)C1=C(C)OC(N)=C(C#N)C1c1cc(C)sc1C (stereo unspecified),-3.4,-3.7,0.7%,-11.1%,-20.6%,-1.2%,5.8
Cc1ccc2[nH]c(CCN(C)C)c(CC#N)c2c1,-5.6,-14.0,u,7.2%,9.7%,-8.8%,2.9
Cc1ccc(NS(=O)(=O)c2cccc(C(=O)N3CCCCCCC3)c2)cc1,4.5,-13.7,2.6%,x,1.3%,-2.7%,x
O=C1CC(c2ccccc2)Cc2nc(NC3CC3)ncc21 (stereo unspecified),-7.6,-8.9,-24.2%,0.3%,3.3%,1.2%,-4.1
COC(C[C@@H](O)C[C@H](O)[C@@H](C)OCc1ccccc1)OC,-8.1,u,x,17.3%,4.8%,3.1%,3.4
CCCOC(=O)c1ccc(S(N)(=O)=O)o1,-9.5,-11.2,-5.8%,26.3%,9.1%,-2.3%,6.8
CC(=O)Nc1ccc(S(=O)(=O)NCCC(=O)OCC(=O)c2ccc(F)c(F)c2)cc1,-18.7,5.6,-35.7%[inhibitor],4.8%,-5.9%,-1.5%,x
CCOc1ccc(C(=O)NCc2cccnc2)cc1[N+](=O)[O-],-4.1,0.2,29.2%[15.4 µM],-7.4%,6.1%,x,0.5
COc1cc2c(cc1OC)C(c1cccs1)N(C(=O)c1ccncc1)CC2 (stereo unspecified),2.9,-10.5,12.7%[15.4 µM],15.8%,11.3%,x,-0.5
CCCCc1nc(Cl)c(C#N)c2c1CSC(C)(C)C2,-2.6,-6.1,13.2%,-7.1%,-19.9%,-1.0%,0.4
Cc1ccc(CCNC(=O)C2CCN(S(=O)(=O)c3ccc4c(c3)NC(=O)CO4)CC2)cc1,-3.3,7.7,9.1%,10.1%,6.0%,0.5%,x
CC1=C(C(=O)N2CCOCC2)CC(CC(=O)NCc2cccc3ccccc23)C(=O)N1Cc1ccc(F)cc1 (stereo unspecified),-0.3,x,26.8%,x,x,0.6%,x
CC(C)CNC(=O)C(=O)NCc1ccccn1,-7.6,-15.3,20.6%[15.4 µM],-29.7%,13.0%,x,-2.1
O=C(CSc1nnc(COc2cccc3cccnc23)o1)c1ccc(F)cc1,6.7,23.3,7.0%,-5.7%,-8.1%,-3.3%,-0.8

Three entries out of the list, ordered by formula weight, rising.
molecule,D2 PAM,TRPV1 potentiator,gsp agonist,Sfp PPTase inh,gsp antag,ClpP mod,Menin MLL FP FL
OCC[C@H]1C[C@H](O)[C@@H](O)[C@@]2(CCCCO2)O1,-2.8,19.1,18.7%,0.8%,5.6%,-1.1%,2.9
CCOc1ccc(C(=O)NCc2cccnc2)cc1[N+](=O)[O-],-4.1,0.2,29.2%[15.4 µM],-7.4%,6.1%,x,0.5
O=C(NC(Cc1ccccc1)c1ccc2c(c1)OCCCO2)c1ccccc1 (stereo unspecified),-7.8,-6.4,3.8%,1.3%,-7.2%,-3.6%,6.9
